# Compound activity: PubChem, National Center for Advancing Translational Sciences (NCATS)
# Sfp inh = Sfp phosphopantetheinyl transferase inhibition | Q9F4F7 | Biochemical Sfp PPTase activity, qHTS | Potency, µM, without a hit: max response, negative = inhibition, usual class: inhibitors | actives 3.5% (n = 310,000) | AID 1490; active means well fitted inhibition curve with a large enough effect; inconclusive means small, poorly fitted or top-dose-only effect, or another doubt; inactive means no such curve, though single readings can be large or run the other way;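 further: the enzyme is Sfp with the accession as filed and its product quenches rhodamine fluorescence; potency means the concentration at half of the fitted maximal effect; 0% = enzyme reaction without inhibitor and -100% = no enzyme wells; top concentration of the series not given in the record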
#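 Step 1, compound plus 15 nM Sfp-PPTase, 15 min, room temperature. Step 2, add rhodamine-CoA (5 uM) and BHQ-2-YbbR (12.5 uM). Step 3, read 525/598 nm fluorescence at 0 and 30 min.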
# CtBP-E1A inh = CtBP/E1A binding inhibition; AlphaScreen GST-E1A/His-CtBP binding, 1536-well; stronger effect = lower value; control for the full effect not named in the record; activity change, % (concentration not given with the values); actives 0.49% (n = 340,000); AID 651724; in the data active means activity change below about -65%; inconclusive means about -30% to -65%; inactive means above about -30%; further: on the % scale 0 is the no-effect control and ±100 the full control effect
#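 In 5 uL wells, 23 nL compound meets equimolar GST-E1A and His-CtBP (5X stock 125 nM each) for 2 h, 37 °C. Beads (5X, 50 ug/mL) then 1 h, 37 °C, dark.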
# ClpP mod = qHTS Assay for Activators of ClpP | ATP-dependent Clp protease proteolytic subunit (Bacillus subtilis (strain 168)), P80244 | purified B. subtilis ClpP, FRET peptide cleavage, 20 min | Potency, µM (top dose mostly 57.5 µM), without a hit: top-dose activity change, negative = active | actives 1.9% (n = 340,000); active = well fitted falling curve with a large enough effect; inconclusive = small, poorly fitted or top-dose-only effect; inactive = no such curve, though single readings can be large or run the other way; further: potency means the concentration at half of the fitted maximal effect; the source files actives as falling curves though it sought activators and does not explain the sign; nearly all actives have a fitted effect of over 65% in size; many hits overshoot -100%
# Target sequence (P80244 whole entry, looked up): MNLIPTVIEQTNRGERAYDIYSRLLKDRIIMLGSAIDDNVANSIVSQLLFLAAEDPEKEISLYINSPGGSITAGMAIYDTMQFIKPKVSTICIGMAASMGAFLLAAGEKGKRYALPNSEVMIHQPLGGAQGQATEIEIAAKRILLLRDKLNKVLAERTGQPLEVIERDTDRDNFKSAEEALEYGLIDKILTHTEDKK
#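 FRET quenching reversal measured ClpP activation: 10 microg/mL B. subtilis ClpP at pH 8 with the FRET-FV decapeptide, read at 430 nm after 320 nm excitation. The 20-min minus 0-min signal was scaled between DMSO/no-enzyme wells and ADEP (5.8 microM final).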
# gsp antag = antagonists of gsp mutant (McCune-Albright syndrome). actives 0.4% (n = 340,000). Potency, µM (doses to about 76.9 µM), inactives show at the top dose activity change, negative = inhibition, hits mostly inhibitors. gsp-mutant cells, cAMP HTRF, 30 min; control for the full effect not named in the record; active = falling curve of any shape with a large fitted effect; inconclusive = falling curve, mostly with a smaller effect; inactive = flat or rising curve; cell line not stated here;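 further: intracellular cAMP measured with PDE inhibitor Ro 20-1724 present during compound exposure; potency means the concentration at half of the fitted maximal effect; on the % scale 0 is the no-effect control and ±100 the full control effect; nearly all actives have a fitted effect of over 65% in size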
#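 Cells in G418 medium, seeded 16-24 h, 37C; buffer exchange to DPBS + 1 mM CaCl2, 0.5 mM MgCl2, 0.05% BSA; cpds in DMSO + […] (300 uM stock), 30 min 37C; HTRF cAMP detection.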
# Menin MLL FP FL = menin-MLL binding inhibition, fluorescein peptide; AID 1766; 290,000 tested, under 10 active; Fluorescence polarization, fluorescein-MLL peptide displacement from menin; FP activity change, % at 61.4 µM; inconclusive = falling polarisation curve, or a change in total fluorescence; inactive = total fluorescence flat and polarisation flat or rising; no compound was filed as active; the % refers to the polarisation; negative = inhibition;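 further: % of control where 0% means no effect; inhibitors lower the polarisation; unlabelled MLL peptide was the positive control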
# TRPV1 potentiator = potentiators of human vanilloid receptor 1 (TRPV1) | Q8NER1 | TRPV1-expressing cells, Fluo-8 calcium influx, capsaicin EC20 potentiation; host cell line not named in the record; control for the full effect not named in the record | potentiation, % at 8.33 µM | actives 0.02% (n = 320,000) | AID 540277; active means potentiation above 80%; inconclusive means 30% to 80%; inactive means below 30%; further: 0% is about no effect
# Target sequence (Q8NER1 whole entry, looked up): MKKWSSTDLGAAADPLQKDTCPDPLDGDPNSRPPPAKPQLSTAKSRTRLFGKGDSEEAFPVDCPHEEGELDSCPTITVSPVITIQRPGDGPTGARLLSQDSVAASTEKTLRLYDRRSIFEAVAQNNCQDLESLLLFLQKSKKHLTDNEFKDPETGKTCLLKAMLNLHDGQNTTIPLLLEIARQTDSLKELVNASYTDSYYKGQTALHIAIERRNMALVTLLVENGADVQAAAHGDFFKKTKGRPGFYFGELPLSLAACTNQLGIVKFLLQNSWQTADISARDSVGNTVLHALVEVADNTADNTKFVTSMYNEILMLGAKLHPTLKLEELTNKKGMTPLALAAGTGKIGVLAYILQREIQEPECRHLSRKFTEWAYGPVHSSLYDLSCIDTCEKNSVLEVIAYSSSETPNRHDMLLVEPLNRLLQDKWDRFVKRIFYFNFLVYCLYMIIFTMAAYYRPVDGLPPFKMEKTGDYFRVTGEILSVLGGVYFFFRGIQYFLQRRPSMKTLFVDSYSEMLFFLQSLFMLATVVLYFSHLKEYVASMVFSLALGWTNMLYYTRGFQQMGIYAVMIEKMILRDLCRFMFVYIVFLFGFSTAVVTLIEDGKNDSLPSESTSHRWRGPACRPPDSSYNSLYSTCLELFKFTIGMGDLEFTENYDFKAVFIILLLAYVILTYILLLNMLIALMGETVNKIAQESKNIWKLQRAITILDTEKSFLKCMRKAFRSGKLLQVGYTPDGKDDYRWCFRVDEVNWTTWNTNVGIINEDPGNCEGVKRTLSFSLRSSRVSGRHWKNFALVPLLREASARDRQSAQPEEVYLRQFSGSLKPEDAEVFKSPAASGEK
#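 Cells expressing TRPV1 were dye-loaded with Fluo-8 and read kinetically: 10 s baseline, 3 min after compound (agonist portion), then 2 min after EC20 capsaicin (allosteric enhancer portion). Calcium-bound dye fluorescence at 480/520 nm.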
# gsp ag = activates gsp, the McCune-Albright syndrome mutation; Potency, µM (highest dose often 76.9 µM), for the others: top-dose activation (cAMP increase), actives largely listed as activators; actives 0.13% (n = 340,000); AID 624287; gsp mutant cells, cAMP HTRF, 30 min; control for the full effect not named in the record; active = well fitted activation curve with a large enough effect; inconclusive = small, poorly fitted or top-dose-only effect, or another doubt; inactive = no such curve, though single readings can be large or run the other way; cell line not stated here;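 further: phosphodiesterase inhibitor Ro 20-1724 added with compounds to block cAMP breakdown; potency means the concentration at half of the fitted maximal effect; nearly all actives have a fitted effect of over 60% in size; about a fifth of the inactives were tested at one dose only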
#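 Cells stably selected in G418 were plated at 2000/well, grown 16-24 hr, then given compounds in DMSO with the PDE inhibitor […] (300 uM solution added) for 30 min at 37C; cAMP was read by HTRF.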
# * marks the source's active call; other numbers are inactive results; u = inconclusive; x = not tested or not shown; & = joins results of further samples; [ ] = another dose, or the depositor's remark. Outcome played no part in choosing rows; about 5.3% have a hit in one of these screens.
SMILES,Sfp inh,CtBP-E1A inh,ClpP mod,gsp antag,Menin MLL FP FL,TRPV1 potentiator,gsp ag
CCN(CC(=O)Nc1ccc(NC(C)=O)cc1)C(=O)c1cn(-c2ccccc2)nc1-c1cccs1,x,-1,u,-11%,x,11,-34%[inhibitor]
COCCSc1ccccc1C(=O)Nc1cccnc1,u,0,-0.5%,6%,1.5,-3,-3%
COc1ccccc1N1CCN(CCCNC(=O)Nc2ccccc2C)CC1,10%,-3,1.2%,12%,2.1,2,16%
O=C(Nc1ccc(Cl)cc1)c1ccc2snnc2c1,4%,0,-0.3%,0%,1.5,-15,-44%[inhibitor]
COc1ccc(-n2c(O)c(/C=N/NS(=O)(=O)c3ccc(C)cc3)c3ccccc3c2=O)cc1OC,6%,1,0.2%,u,u,5,-5%[15.4 µM]
CC(=O)Nc1ccc(NC(=O)CCN2C(=O)C3CC=CCC3C2=O)cc1 (stereo not drawn),x,-1,1.7%,14%,x,2,-85%[inhibitor]
O=C(NCc1ccncc1)C(F)(F)C(F)(F)C(=O)NCc1ccncc1,11%,3,-0.4%,13%,-0.6,-40,-20%
O=C(N/N=C\c1ccc([N+](=O)[O-])s1)c1cncc(Br)c1,-9%,u,-1.1%,3%,21,1,14%
CCc1ccc(NC(=O)C(C)Sc2ccc(S(=O)(=O)N3CCN(C)CC3)cn2)cc1 (stereo not drawn),x,0,0.8%,-19%,x,-19,-18%
O=C(CCCN1C(=O)/C(=C\c2cccs2)SC1=S)Nc1ccc(C(=O)O)cc1,-1%,-26,x,u,-0.1,20,u
O=C(CCS(=O)(=O)c1ccc(Cl)cc1)Nc1nc(-c2ccncc2)cs1,12%,x,-2.3%,-9%,-1.4,0,u
Cc1cc(=O)[nH]c(SCC(=O)N2CC3(C)CC2CC(C)(C)C3)n1 (stereo not drawn),x,-4,x,-6%,x,x,26%
COc1cccc(/C=N/NC(=S)Nc2cccnc2)c1,-2%,4,x,-1%,-1.2,13,19%
COc1ccc(C(=O)Nn2c(SCC(=O)NCc3ccco3)nc3ccccc3c2=O)cc1,-10%,u,-7.9%,0%,-1.1,0,-7%
COc1cc(/C=C2/C(=O)NN(c3ccc(Cl)c(Cl)c3)C2=O)cc([N+](=O)[O-])c1O,17%,1,0.3%,-12%,-11,2,-19%
CN1CCN(C(=S)c2ccc(Br)cc2)CC1,1.3µM*,5,x,8%,-1.1,0,13%[15.4 µM]
Cc1ccc(NC(=O)CN(C)Cc2cc(=O)n3ccsc3n2)cc1,12%,-24,x,-4%,-8.7,-3,u
Cc1cc(=O)[nH]c(SCC(=O)NCCC2=CCCCC2)n1,-23%,6,x,0%,4.2,-23,29%
O=C(c1cccc(F)c1)N1CCCC(C(=O)N2CCCC2)C1 (stereo not drawn),-1%,2,-1.2%,9%,0.8,8,0%
CC(C)OCCCNC(=O)C1CCN(S(=O)(=O)c2ccc3nc4c(c(C(=O)O)c3c2)CCCCC4)CC1,20%,3,-2.8%,7%,-2.4,0,19%
CCCC(=O)Nc1cccc2c1CCCC2,5%,-2,-1.5%,-12%,2.8,-8,0%
COCCNC(=O)/C=C/c1c(Cl)cccc1Cl,0%,1,-20%,6%,4.9,4,0%
CC(=O)Oc1ccccc1N(C(C)=O)S(=O)(=O)c1ccc2ccccc2c1,0%,-7,x,-1%,-4.2,11,-1%[15.4 µM]
CC(C)(C)c1ccc(NC(=O)c2ccsc2)cc1,79µM*,10,x,-30%,0.5,6,2%[15.4 µM]
COc1ccc(CNC(=O)CSc2nnc3nc(C)cc(C)n23)cc1OC,16%,-2,1.1%,9%,1.1,13,1%
# Next section.
SMILES,Sfp inh,CtBP-E1A inh,ClpP mod,gsp antag,Menin MLL FP FL,TRPV1 potentiator,gsp ag
Cn1c(=O)n(Cc2ccccc2F)c(=O)c2c1nc1n2CCN1Cc1ccco1,8%,0,x,-36%,-0.3,-25,11%[15.4 µM]
CCOC(=O)c1sc(NC(=O)c2ccc(S(=O)(=O)N3CCOCC3)cc2)nc1-c1ccccc1,-8%,x,-3.4%,-19%,2.2,-18,3%
CCCn1c2ccc(F)cc2c2nnc(SCCN3CCCCC3)nc21,-17%,-5,-3.8%,13%,-1.0,-9&-5,u
CCCCN(C(=O)NC(=O)Nc1cccc(C)c1C)S(C)(=O)=O,12%,-8,-2.3%,3%,7.8,13,-2%
CCOc1cc(C(=S)N2CCOCC2)ccc1OS(=O)(=O)c1ccc(C)cc1,-27%,0,x,-13%,-0.4,-7,-51%[inhibitor]
COC(=O)c1ccccc1NC(=O)CN(C)S(=O)(=O)c1ccc(OC)cc1,-6%,17,-14%,13%,-0.2,-6,-26%
O=C(NCc1nc2ccccc2[nH]1)C1=C[C@H](C2CCCCC2)C[C@H](OCCCCO)O1,x,-2,2.2%,-11%,x,x,-3%
COc1ccc(C(=O)N=c2sccn2C)cc1,10%,-2,-1.7%,5%,5.8,7,u
O=C(Nn1c(SCc2ccc(F)cc2)nc2ccsc2c1=O)c1ccccc1,12%,-2,-0.3%,-1%,1.7,4,-35%[inhibitor]
COc1ccc(NC(=O)CS(=O)(=O)c2ccccc2Cl)cc1,7%,1,x,2%,-1.1,-25,7%
COCCCNC(=O)C[C@H]1C[C@H](C(=O)N2CCOCC2)[C@@]2(CCC3CCCC3)c3[nH]c4ccc(Cl)cc4c3CCN2C1=O,x,8,0.9%,6%,x,x,x
COc1ccc(NC(=O)C2C3C=CC(O3)C2C(=O)O)cc1 (stereo not drawn),12%,x,-1.5%,2%,-2.3,u,6%
Cc1ccc(C(=O)N/N=C/C=C/c2ccccc2)o1,-20%,10,x,-8%,-3.9,-27,2%
COCCNC(=O)C(c1ccncc1)N(C(=O)c1sc(C)nc1C)c1cccc(C)c1 (stereo not drawn),9%,-2,-1.2%,9%,-2.6,-1,17%
Cc1ccc(CNC(=O)C(=O)NCC2OCCN2C(=O)c2ccc3c(c2)OCO3)cc1 (stereo not drawn),4%,4,x,-2%,-1.6,-7,-6%
Cc1onc(-c2ccc(Cl)cc2Cl)c1C(=O)/C=C/N(C)C,5%,6,0.1%,-12%,4.6,1,-60%[inhibitor]
O=C(CSc1nccc(-c2ccc(Br)cc2)n1)NCCc1ccccc1,5%,11,-4.7%,13%,-1.6,1,u
NC(=O)c1cnn(-c2cc(Oc3ccccc3)ncn2)c1N,4%,0,x,-5%,0.2,-3,17%
CCOC(=O)Nc1ccc(S(=O)(=O)Nc2cc(C)nc(C)n2)cc1,11%,2,-2.8%,3%,0.5,0,3%
O=C(NN1c2ccccc2CCc2ccccc21)c1ccccc1Br,2%,3,0.7%,-16%,-0.9,21,-5%
O=C(CN1C(=O)c2cccc3cccc1c23)N1CCN(Cc2ccc3c(c2)OCO3)CC1,0%,3,-1.3%,-10%,0.3,-11,-7%
CCOC(OCC)c1nc(N)[nH]c(=O)c1CCCCc1ccccc1,x,1,x,-7%,x,x,-7%
CCOC(=O)N1CCC(N2C(=O)c3ccccc3C2Nc2ccc3c(c2)OCCO3)CC1 (stereo not drawn),22%,-5,-1.1%,-4%,3.7,-8,21%
O=c1c(Cc2ccc(F)cc2)c(O)ccn1CCc1cnc[nH]1,6%,x,-0.6%,1%,-2.3,1,-60%[inhibitor]
c1ccc2cc(CCO[C@H]3CCCCO3)ncc2c1,x,x,-5.9%,5%,x,x,u
# The listing continues.
SMILES,Sfp inh,CtBP-E1A inh,ClpP mod,gsp antag,Menin MLL FP FL,TRPV1 potentiator,gsp ag
O=C(NCCC1CCCCN1S(=O)(=O)c1ccccc1)C(=O)NCc1ccccc1 (stereo not drawn),x,-2,-3.4%,2%,x,-12,2%
CC1CCCCC1NC(=O)CCc1nc2sc3c(c2c(=O)[nH]1)CCCC3 (stereo not drawn),x,0,1.5%,-5%,x,-24,-20%[15.4 µM]
CC1(C)CC(NC(=S)Nc2ccc(S(N)(=O)=O)cc2)CC(C)(C)N1,-71%,-8,x,13%,4.3,8,2%[15.4 µM]
COc1ccc(Cc2nc3ccc(S(=O)(=O)N4CCOCC4)cc3[nH]2)cc1OC,-1%,2,u,-2%,2.6,-1,5%
CCOC(=O)Cc1csc(SC(C)C(=O)NC2CCCCC2C)n1 (stereo not drawn),x,21,1.1%,-2%,x,1,-37%[inhibitor]
CCOC(=O)N(O)c1ccc(C=Cc2ccccc2)cc1,x,2,-28%,-26%,x,x,-3%
CCN(CC)c1ccc([N+](=O)[O-])cc1/C=N/NC(=O)CC#N,-9%,1,u,-3%,1.2,26,9%
CCCc1nn2c(=O)cc(CSCC(=O)Nc3ccc(OC)cc3)nc2s1,4%,4,0.0%,2%,-1.8,-4,u
Clc1c(OCCCn2ccnc2)ccc2ccccc12,5%,-20,x,-13%,0.4,-8,-5%
CC(C)CCNC(=O)CO/N=C/c1ccccc1OC(F)F,0%,9,-0.9%,7%,-0.2,10,-36%[inhibitor]
CCN1CCN(C(=O)c2cc3sccc3n2CC(=O)c2ccccc2)CC1,13%,-4,0.5%,2%,0.0,9,13%
O=[N+]([O-])c1ccccc1/C=C/C=N/Nc1ccc(S(=O)(=O)Nc2ccc(Cl)cc2)cc1[N+](=O)[O-],11%,u,-1.7%,3%,3.1,4,-7%[15.4 µM]
O=C(Nc1cc(S(=O)(=O)N2CCOCC2)ccc1N1CCCC1)c1ccc2c(c1)S(=O)(=O)c1ccccc1C2=O,10µM*,-18,x,9%,-0.7,14,22%[15.4 µM]
Nc1ccccc1C(=O)Nc1nccs1,u,0,x,-2%,-2.9,-2,-14%
COc1ccccc1-n1ccnc(SCC(=O)NCc2ccccc2Cl)c1=O,x,-10,-30%,-2%,x,-3,13%
O=C(NCc1cccc(C(F)(F)F)c1)c1cccc(Cl)c1Cl,10%,x,4.8%,-7%,x,-7,-23%
COc1cc(C(=O)NCc2nc(C)cs2)ccc1OC1CCN(C(C)=O)CC1,10%,10,-4.5%,11%,x,2,3%[15.4 µM]
Cc1nn(C)cc1/C=N/NC(=S)Nc1ccc(Cl)cc1Cl,-7%,-1,-1.5%,-10%,2.4,-17,-16%
Cc1ccc2c(C(=O)CN3CCSCC3)c(C)[nH]c2c1,7%,-13,-1.3%,-2%,4.4,-8,-22%
